# Assay outcomes from PubChem BioAssay.
# hNpr1 antagonist: antagonists of human natriuretic peptide receptor Npr1. P16066. HEK293 hNpr1 GloSensor cGMP, ANP-stimulated luminescence. Potency, µM (titrated, usually from 46.3 µM), without a hit: at the top dose activity change, negative = inhibition, hits mostly inhibitors. 76,000 compounds, 1.6% hits. AID 1347048; active = well fitted inhibition curve with a large enough effect; inconclusive = small, poorly fitted or top-dose-only effect; inactive = no such curve, though single readings can be large or run the other way;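 note: nearly all actives have a fitted effect of over 60% in size; nearly all hits also lower the signal before the agonist is added; a reference antagonist and vehicle were the controls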
# Target sequence (P16066 whole entry, looked up): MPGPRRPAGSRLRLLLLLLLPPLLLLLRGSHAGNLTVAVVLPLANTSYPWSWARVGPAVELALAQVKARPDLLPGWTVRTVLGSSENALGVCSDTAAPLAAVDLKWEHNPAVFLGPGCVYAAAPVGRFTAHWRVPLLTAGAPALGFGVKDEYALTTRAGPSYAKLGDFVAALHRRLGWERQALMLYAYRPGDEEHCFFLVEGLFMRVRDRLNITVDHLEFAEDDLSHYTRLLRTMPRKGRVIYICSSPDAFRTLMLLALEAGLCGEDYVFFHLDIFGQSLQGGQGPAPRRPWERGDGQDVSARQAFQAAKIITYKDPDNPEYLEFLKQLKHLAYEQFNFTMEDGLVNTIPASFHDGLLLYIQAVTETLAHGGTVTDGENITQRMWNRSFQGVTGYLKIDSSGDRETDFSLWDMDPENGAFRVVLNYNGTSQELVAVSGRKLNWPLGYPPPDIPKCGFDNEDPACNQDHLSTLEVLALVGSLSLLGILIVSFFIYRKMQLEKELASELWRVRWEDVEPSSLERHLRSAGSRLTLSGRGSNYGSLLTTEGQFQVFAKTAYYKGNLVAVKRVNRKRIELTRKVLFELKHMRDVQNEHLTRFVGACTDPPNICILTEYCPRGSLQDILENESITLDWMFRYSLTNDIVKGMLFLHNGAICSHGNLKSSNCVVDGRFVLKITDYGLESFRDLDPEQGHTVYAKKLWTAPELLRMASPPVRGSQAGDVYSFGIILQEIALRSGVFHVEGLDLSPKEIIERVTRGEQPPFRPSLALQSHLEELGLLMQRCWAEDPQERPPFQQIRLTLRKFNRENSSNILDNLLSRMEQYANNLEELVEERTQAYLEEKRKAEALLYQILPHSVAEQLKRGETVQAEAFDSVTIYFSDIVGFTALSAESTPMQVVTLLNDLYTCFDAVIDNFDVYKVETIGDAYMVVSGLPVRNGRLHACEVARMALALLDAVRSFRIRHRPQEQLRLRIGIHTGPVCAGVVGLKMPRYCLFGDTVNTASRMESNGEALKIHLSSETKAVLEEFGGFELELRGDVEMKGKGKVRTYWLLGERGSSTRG
#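 Compound pre-incubated 30 min at room temperature on GloSensor-loaded HEK293 cells stably carrying hNpr1 and the pGS-40F cGMP biosensor. Stimulation uses hNppA at 0.1 nM final; luminescence is taken at baseline and 20 min post-agonist.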
# The depositor's hits bear a star; ? = inconclusive; [ ] = remark or other dose. % is set by controls: 0 for no effect and ±100 for the full control effect; potency is the fitted concentration of half-maximal effect.
structure	hNpr1 antagonist
CN1CCC(N2CCOC[C@H]2c2ncc(C(C)(C)C)[nH]2)CC1	2.3%[70.6 µM]
Cc1ccc(CNC(=O)c2ccc(NC(=O)c3cc4c(=O)[nH]c(C)cn4n3)cc2)cc1	5.7%
Cc1ccccc1Nc1n[nH]c(C(O)c2cccc(C(F)(F)F)c2)n1 (centres undefined)	-19.3%[70.6 µM]
C=CCNC(=O)N[C@H]1CCN(C(=O)CC(C)(C)C)[C@@H]1C(=O)N[C@@H](C(=O)OC)C(C)C	-2.7%[70.6 µM]
Cc1noc(CC2CCOC3(CCN(C(=O)c4ccc(C#N)cc4)CC3)C2)n1 (centres undefined)	?
COc1ccccc1CN1CC[C@H](CNC(=O)C2CC2)[C@H](N(C)C)C1	2.9%
CC(=O)N1CCN(c2nc3c(s2)CC(C(=O)NCc2ccc(C(C)C)cc2)CC3)CC1 (centres undefined)	?
Cc1nn2c(c1-c1cccnc1N1CCOCC1)N(C(=O)C(C)C)CCC2	4.4%[70.6 µM]
Cn1cnc(S(=O)(=O)N2CCCC(Cn3c(C4CC4)nc4cccnc43)C2)c1 (centres undefined)	4.0%
COc1cc(F)c(-c2nccn2CC(O)c2ccccc2)cc1OC (centres undefined)	-0.2%
COc1ccc(CN2C[C@H]3CN(Cc4ccccc4)CCN3C2=O)cc1	?
CCOc1ccccc1C1NC(=O)N(CC(=O)NCc2ccccc2)C2=C1C(=O)OC2 (centres undefined)	1.2%
CCOC(=O)N1CCC(N[C@@H]2CC[C@@H]2NC(=O)CCn2cncn2)CC1	-0.1%
O=C(CN1CCOCC1)N1CCNc2cnc(Nc3ccc(-n4ccnc4)cc3)nc2C1	-2.4%[70.6 µM]
Cn1ccnc1CN1CCC2(CC1)OC(=O)N(Cc1ccccc1F)C2(C)c1ccccc1 (centres undefined)	4.4%
Cc1noc2c(NCc3cnccn3)cc(-c3ccc(Cl)cc3)nc12	2.2%[70.6 µM]
CC(C)CNC(=O)C1(CCO)CCN(c2ncccn2)C1 (centres undefined)	-1.5%
COCCN1C(=O)CCc2cc(NC(=O)c3ccc(Br)o3)ccc21	1.1%
CC(NC(=O)Cc1c(F)cccc1Cl)C(=O)N1CCN(c2ccccn2)CC1 (centres undefined)	1.0%
CCN1c2cc(C(=O)NCc3ccccc3C)ccc2C(=O)N2CCCCCC21 (centres undefined)	-0.7%
Cc1noc(C)c1CNCC1(COc2cnccn2)C[C@@H](O)[C@@H](O)C1 (some centres undefined)	-1.1%[70.6 µM]
Cc1noc(C)c1S(=O)(=O)NCc1cccnc1N(C)Cc1ccccc1	-0.7%
CCOC(=O)C1(Cc2cccc(C(F)(F)F)c2)CCN(Cc2cc(C(C)C)n[nH]2)CC1	?
COc1ccc(C2Cn3nnc(-c4noc(-c5cccc(OC)c5)n4)c3CO2)cc1 (centres undefined)	2.3%
O=C(NCc1ccc2c(c1)OCO2)c1noc(-c2ccc(F)cc2)n1	-8.5%
Cc1ncccc1C(=O)N1CCC(N2CC3CC(C2)[C@H]2CCCC(=O)N2C3)CC1 (some centres undefined)	3.3%
O=C(CCc1ccccc1)N1CCC[C@H]1c1nc(-c2ccccc2Cl)no1	-16.3%
O=C1NCCCCCN(C(=O)CCCc2ccccc2)[C@H]2CCC[C@@H]12	5.7%
O=C(NCc1ccc2[nH]c(=O)[nH]c2c1)[C@H]1CNC[C@H](C(=O)N2CCCC2)C1	5.7%
COC[C@H]1C[C@@H](NC(=O)Nc2ccc(F)cc2)[C@H](O)[C@@H]1O	2.0%[70.6 µM]
CN1CCN(S(=O)(=O)c2cc(C(=O)O)cc(-c3ccncc3)c2)CC1	-0.8%
CCNC(=O)N1CCCC(O)(CNS(=O)(=O)c2cnn(CC)c2C)CC1 (centres undefined)	0.1%
CC(C)(C)c1ccc(C(=O)N[C@H]2CC(C)(C)[C@@H]3C[C@@](C)(O)CC[C@]23CCC(=O)N2CCCC2)cc1	2.2%
CCc1nc(-c2c3n(c(=O)n(Cc4ccc(OC)c(F)c4)c2=O)CCCC3)no1	5.0%
COc1ccccc1CC(=O)N[C@H]1CN(S(C)(=O)=O)C[C@@H]1C(C)C	2.3%
COc1ccc(-c2noc(CC3CCN(C(=O)CCc4cccc(OC)c4)CC3)n2)cc1	12.6µM*
O=C(CCCc1ccccc1)N1CCC(Cc2nc(-c3ccc(F)cc3)no2)CC1	7.94µM*
COC1C(=O)N(c2cccc(F)c2)C12CCN(C(=O)c1cccnc1C)CC2 (centres undefined)	4.9%
CNc1nccc(N2CCC(CC(=O)NC3CCN(Cc4ccccc4)CC3)CC2)n1	-12.5%
CCCCN1C(=O)c2ccccc2C(C(=O)NCCC(=O)OC)C12CCCCC2 (centres undefined)	-9.2%
CN(C)c1ccc(CN(C)C2CCc3ccccc32)cc1 (centres undefined)	-2.2%[70.6 µM]
CCc1cn(C[C@H](NC2CCOCC2)C(=O)O)c(=O)[nH]c1=O	9.6%[70.6 µM]
CCOc1cc(-c2noc(-c3nnn4c3COC(c3ccc(Cl)cc3)C4)n2)ccc1OC (centres undefined)	-6.7%
O=C(CN1C(=O)COc2ccc(C(=O)COc3ccc(Cl)cc3F)cc21)NCCc1ccccc1	-4.2%
CN1CC(=O)N(c2ccccc2F)Cc2c(NCCCc3ccccc3)ncnc21	4.0%
CN(C)c1cccc(NC(=O)Cn2c3c(c(=O)n2Cc2ccccc2)CCN(Cc2ccccc2)C3)c1	-8.0%
CC#CC(=O)N1CCCC(N2CCN(c3cccc(Cl)c3)CC2)C1 (centres undefined)	7.3%
CSc1ccc(CNC(=O)c2cc3c(N4CCCC4)nc(C)cn3n2)cc1	-11.7%
CN1CCCN(S(=O)(=O)c2ccc3c(c2)CCC3)c2ccccc21	1.4%
COc1ccccc1CCC(=O)N1CC(F)(F)C[C@H]1c1nc(C)no1	-1.1%
O=C(c1ccc(F)cc1)N1CCC2(CC1)NC(=O)N(c1ccccc1Cl)N2	0.0%
CC(C)N1CC[C@@H]2[C@H]1C(=O)NC[C@H](CCC(=O)N1CCN(c3ccccn3)CC1)N2C	7.2%[70.6 µM]
CC(C)NC[C@H]1O[C@@H]2C[C@@H](CC(=O)NCc3cnn(C)c3)O[C@@H]2[C@@H]1O	0.4%[70.6 µM]
CN(CC1COCCO1)C(=O)c1coc(COc2ccc3c(c2)OCO3)n1 (centres undefined)	1.0%
CCN1CC(C(=O)NCCc2nc(C(C)C)no2)CCC1=O (centres undefined)	-1.3%
O=C(NCc1cc(F)cc(F)c1)c1nc(-c2ccc(F)cc2)c2ccccn12	-2.8%
CC(C)NC(=O)NC[C@H]1OC[C@@H](NC2CCNCC2)[C@@H]1O	-0.8%[70.6 µM]
CSCC(=O)N[C@H]1CCN2C(=O)c3cc(-c4cccs4)ccc3NC(=O)[C@H]12	-6.9%[70.6 µM]
CC1(COCC2CC2)COc2ccc(C(=O)NCc3cccnc3)cc2N1 (centres undefined)	-4.5%[70.6 µM]
CS(=O)(=O)N1CCc2ccc(C(=O)NCc3ccc(OC(F)(F)F)cc3)cc21	-3.4%

# Carrying on.
structure	hNpr1 antagonist
COCCC(=O)NC(C)C(=O)N1CCN(c2ccccn2)CC1 (centres undefined)	3.4%
Cc1cnc(CCNC(=O)NC(C)C)n1C1CC1	3.2%
Cc1cc(NC(=O)c2ccc3c(c2)N(C)C2CCCCCN2C3=O)ccc1Cl (centres undefined)	-2.2%
OC1CC(c2cc(NCCOc3ccccc3)ncn2)C1 (centres undefined)	?
c1cncc(-c2cnc([C@@H]3COCCN3Cc3ncc[nH]3)[nH]2)c1	0.4%[70.6 µM]
O=C(NC1CCCN(c2cc(N3CCCC3)ncn2)C1)c1ccccc1 (centres undefined)	-7.5%
COCCN(C)C(=O)C(C)(C)Oc1nn(Cc2cccc(Cl)c2)c2ccccc12	-21.7%[70.6 µM]
CC(=O)Nc1ccc(S(=O)(=O)NC[C@@H]2C=C(C)[C@H](CC(=O)NCCN(C)C)C[C@H]2C(C)C)cc1	-2.2%
COc1ccc(CN2Cc3[nH]cnc3C[C@H]2c2nc(-c3cnccn3)no2)cc1	2.2%[70.6 µM]
c1coc(-c2ccnc3nc(C4CCC4)nn23)c1	3.3%
CCn1ccnc1CN1CCCC1C(=O)Nc1ccc(-c2cccc(F)c2)cc1 (centres undefined)	-3.2%
Cc1noc(C)c1CC(=O)NCC1CCN(c2cc(-c3ccc(F)cc3)[nH]n2)CC1	-16.9%
CCOc1cc(C(=O)N2CCN(c3cc(-c4ccc(F)cc4)[nH]n3)CC2)cc(OCC)c1OCC	2.7%
COCCNS(=O)(=O)c1cc(C(=O)O)cc(-c2ccc(OC)c(F)c2)c1	0.2%
CCCn1ccc2sc(C)c(C(=O)NCc3ccc(F)cc3)c2c1=O	-7.9%

# Reprinted from the entries so far (3 entries):
structure	hNpr1 antagonist
Cc1cnc(CCNC(=O)NC(C)C)n1C1CC1	3.2%
Cc1cc(NC(=O)c2ccc3c(c2)N(C)C2CCCCCN2C3=O)ccc1Cl (centres undefined)	-2.2%
OC1CC(c2cc(NCCOc3ccccc3)ncn2)C1 (centres undefined)	?

# Following part:
structure	hNpr1 antagonist
N#Cc1ccc(S(=O)(=O)N2C[C@@H](Oc3cccnc3)C[C@H]2C(=O)N2CCOCC2)cc1	-1.0%
COCC(=O)N1CCCC(c2nc(-c3ccc(C)nn3)no2)C1 (centres undefined)	1.0%
CCn1nc(C)c(CN2CCC(C3CCNC3)CC2)c1C (centres undefined)	8.9%
CC(Cc1ccc2c(c1)OCO2)CN1CCC(CO)(CN2CCCC2)CC1 (centres undefined)	-10.8%
Cc1sc2ccn(CC(C)C)c(=O)c2c1C(=O)N1CCC(C)CC1	7.5%
COc1cccc(CN2CCC(N3CCCNC3=O)CC2)c1	0.0%[70.6 µM]
CN1C[C@@H](NC(=O)c2ccc(F)cc2)C[C@H]1c1nc(-c2ccc(Cl)cc2)no1	-2.1%[70.6 µM]
C[S+](=O)([O-])N1CCC2(C1)OC(=O)Nc1cnccc12 (centres undefined)	3.7%[70.6 µM]
CC(C)C[C@H]1NC(=O)[C@@H]2C[C@@H](NC(=O)COCC(=O)O)CCN2C1=O	-0.4%[70.6 µM]
CCCCCN(CCC(=O)NCc1ccc2c(c1)OCO2)C(=O)c1cc(C)oc1C	12.6µM*
CC1(C)C[C@@H]2C[C@@](C)(CN2C(=O)c2coc(COc3ccc4c(c3)OCO4)n2)C1	3.7%
O=[S+]([O-])(Nc1ccccc1)c1ccc2c(c1)OCCN(Cc1cncnc1)C2	-17.5%[70.6 µM]
O=[N+]([O-])c1cccc(-c2noc([C@@H]3C[C@@H](O)CN3Cc3ccccc3)n2)c1	3.4%[70.6 µM]
COCc1nc2nccc(-c3ccc(OC)cc3F)n2n1	-0.2%
O=C1CCN(Cc2cccc(OC(F)(F)F)c2)CCCCCCN1	2.0%
CC[C@H]1CN(C(=O)Nc2cccc(C(F)(F)F)c2)CC[C@H]1CC(=O)NCc1cccc2ccccc12	1.1%
CN(Cc1cccnc1)Cc1cccn1C	14.8%[70.6 µM]
CC1=C[C@@H](CNC(=O)[C@@H]2CCCC[C@@H]2C(=O)O)[C@H](C(C)C)C[C@H]1Cc1nc2ccccc2[nH]1	2.6%
CS(=O)(=O)N(C1CCOCC1)C1CCN(C(=O)CC2CCCC2)CC1	-3.8%
COCc1nc(CCNC(=O)CCc2ccccc2)no1	2.6%
CC(C)Cn1c(CN2CCSCC2)cnc1S(=O)(=O)Cc1ccccc1	-2.8%
O=C(CCc1cccnc1)N1CC(COc2ccccc2)C2(C1)CN(c1ccccc1)C2 (centres undefined)	-0.8%[70.6 µM]
CCc1noc(-c2nc(-c3ccc(OC)cc3OC)no2)n1	-2.6%
O=C(CN1CC2CC(C1)[C@H]1CCCC(=O)N1C2)N1CCN(c2ncccn2)CC1 (some centres undefined)	-9.0%
COc1ccccc1CC(=O)N1CCC2(CC1)N=C(c1cccc(Br)c1)NO2	-17.3%
CN1CC(=O)N(c2ccccc2F)Cc2c(NCc3ccccn3)ncnc21	5.6%
O=C(NCCN1CCCCC1)C1CN(S(=O)(=O)c2cccnc2)CC12CCCCC2 (centres undefined)	4.7%
COc1ccc(CNC(=O)[C@@H]2Cc3nc[nH]c3CN2Cc2ccc(CO)o2)cc1	9.1%[70.6 µM]
CCNC(=O)N[C@H]1C[C@@H](Cc2cc(CC(C)C)on2)C1(C)C	0.2%[70.6 µM]
Cc1noc(-c2ccc(OC3CN(C(=O)NC4CCCC4)C3)cc2)n1	?
COC1CN(c2cccc(F)c2)C12CCN(C(=O)CC1CCCCC1)CC2 (centres undefined)	-2.3%
COCc1ncc(CN2CCC(c3[nH]ncc3-c3ccccc3C)CC2)cn1	6.1%
CNC(=O)c1cccc(-c2cnc3[nH]cc(CC(=O)N4CCC(OC)CC4)c3c2)c1	2.4%[70.6 µM]
CN(C)S(=O)(=O)N1CCC2(CCCN(Cc3ccc(F)c(F)c3)C2=O)C1 (centres undefined)	0.6%
O=C1CCN(C(=O)Cc2cccc(F)c2)CCOCCN1	-0.4%
O=C1CCCCC(C(=O)N2CCOCC2)N1 (centres undefined)	2.0%
O=C(c1cccnc1)N1CCC2(CC1)COc1ccccc1NC2=O	0.1%
COc1ccccc1-c1nc(-c2nnn3c2COC(c2ccc(C)cc2)C3)no1 (centres undefined)	16.5%
OC1(c2csc(CN3CCOCC3)n2)CCN(CC2CCCCC2)CC1	0.4%[70.6 µM]

# This is a subset; rates above refer to the full screens.
